HPGD inh: qHTS Assay for Inhibitors of HPGD (15-Hydroxyprostaglandin Dehydrogenase) | Potency, µM, without a hit: top-dose activity change, negative = inhibition, usual class: inhibitors | 15-hydroxyprostaglandin dehydrogenase [NAD(+)] (Homo sapiens), P15428 | 4.3% of 150,000 active | purified HPGD, NADH fluorescence kinetic, PGE2 substrate | AID 894, 2007; active = well fitted inhibition curve with a large enough effect (not every such curve was filed as active); inconclusive = small, poorly fitted or top-dose-only effect, or another doubt; inactive = no such curve, though single readings can be large or run the other way;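 note: top concentration of the series not given in the record; plate controls included wells without enzyme; inactives centre near -10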
Target sequence (P15428 whole entry, looked up): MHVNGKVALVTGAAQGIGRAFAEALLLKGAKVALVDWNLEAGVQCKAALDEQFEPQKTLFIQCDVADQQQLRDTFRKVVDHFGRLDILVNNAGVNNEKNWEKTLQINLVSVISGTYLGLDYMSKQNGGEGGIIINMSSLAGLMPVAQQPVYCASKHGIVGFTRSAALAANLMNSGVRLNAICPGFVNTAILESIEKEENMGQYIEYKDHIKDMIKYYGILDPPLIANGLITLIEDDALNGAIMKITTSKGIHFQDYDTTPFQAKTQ
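20 nM HPGD preincubated 15 min at room temperature with compound in 50 mM Tris-HCl pH 8, 0.01% Tween 20. Started with 1 mM NAD+ and 30 uM prostaglandin E2; NADH fluorescence (360/450 nm) read 5 times over 30-s intervals, last minus first.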
Starred values were filed as active, the others as inactive; ? = inconclusive; & = joins results of further samples. % is set by controls: 0 for no effect and ±100 for the full control effect; potency is the fitted concentration of half-maximal effect. These rows are one share of the data (hit frequency here may not be typical).

Molecule	HPGD inh
CCN(CC)c1ccc(NC(=O)COC(=O)c2cccs2)cc1	-11%
CCOC(=O)c1cnc(SC2CCc3ccccc3C2=O)nc1N (stereo not given)	28µM*
O=C(COC(=O)c1ccc(S(=O)(=O)Nc2ccccc2)cc1)NCc1ccco1	-12%
O=C(NCc1ccccc1Cl)c1ccc(Cn2cc(C(F)(F)F)ccc2=O)cc1	-5%
Cc1ccc(C2C3=C(NCCN=C3c3ccccc3)C(=O)N2c2ccccc2)cc1 (stereo not given)	-3%
COC(=O)c1ccc(CSc2nc3ccccc3c(=O)n2Cc2ccco2)o1	-13%
CCCn1c(=O)c(C(=O)NCc2ccc(OC)c(OC)c2)c(O)c2ccccc21	?
COc1ccc(/C=N/NC(=O)c2cccc(NC(=O)c3ccccc3)c2)c(C(=O)O)c1OC	-11%

An excerpt from above in order of their number in HPGD inh, ascending.
Molecule	HPGD inh
COC(=O)c1ccc(CSc2nc3ccccc3c(=O)n2Cc2ccco2)o1	-13%
O=C(COC(=O)c1ccc(S(=O)(=O)Nc2ccccc2)cc1)NCc1ccco1	-12%
COc1ccc(/C=N/NC(=O)c2cccc(NC(=O)c3ccccc3)c2)c(C(=O)O)c1OC	-11%

The listing continues:
Molecule	HPGD inh
O=C(NCc1ccccc1)c1cccc(COc2ccccc2Cl)c1	?
COc1ccccc1/C=N\Nc1cc(C)nc(-n2nc(C)cc2C)n1	-3%
Cn1c(SCc2ccc(C(=O)Nc3nccs3)cc2)nnc1-c1ccccc1	14µM*
CCN(CC)S(=O)(=O)c1ccc(NCc2ccccc2)nc1	?
COc1ccc(Br)cc1/C=N/NC(=O)C(c1ccncc1)N1CCOCC1 (stereo not given)	-12%
COc1ccc(O)c(/C=N/NC(=O)CSc2nnc(C)n2-c2ccccc2)c1	-14%
Clc1ccccc1OCc1nc(-c2ccc(Br)o2)no1	-25%
CC(=O)OCCn1c(Br)nc2c1c(=O)[nH]c(=O)n2C	-13%
CCOC(=O)c1cnc(-n2nc(C)cc2C)nc1Nc1ccc(OC)cc1	-4%
CCCCCCNC(=O)n1cc(F)c(=O)[nH]c1=O	0%
Cc1ccc(S(=O)(=O)N(CC(=O)NCCSC2CCCCC2)c2ccccc2F)cc1	-4%
Cc1ccc(S(=O)(=O)N2CCN(CC(=O)Nc3ccc([N+](=O)[O-])cc3)CC2)cc1C	-10%
O=C(Nc1ccccc1-c1ccccc1)c1cccc(C(F)(F)F)c1	-6%
CCS(=O)(=O)n1nc(-c2ccccc2)nc1SC	-26%
C=C(C)CNC(=S)N/N=C(\C)c1ccc(-n2ccnc2)cc1	-16%
COC(=O)c1cc(=O)[nH]c(=O)[nH]1	-7%
CN(C)/C=N/c1cc(=O)[nH]c(=O)n1CC1CC1	-6%&-7%
Cc1ccc(-n2nnc3c(=O)n(CC(=O)N4CCC(C)CC4)cnc32)cc1	-11%
COc1ccc(CCN(C(=O)c2cccc(F)c2)C2CC(=O)N(c3ccc(OC)cc3)C2=O)cc1 (stereo not given)	3%
Cn1c(C2CC(=O)N(Cc3ccccc3)C2)nc2ccccc21 (stereo not given)	-20%
CC(=O)c1cn(CC(=O)Nc2c(C)cccc2C)c2ccccc12	-12%
CCCCCSc1nc(N2CCOCC2)c2c(c1C#N)CC(C)(C)OC2	-9%
Cc1nn(Cc2c(Cl)cccc2Cl)c(C)c1C(=O)NCc1ccc(C)n1C	-15%
O=C1CC(c2ccc(F)cc2)CC(O)=C1C=NCCN1CCN(C(=O)Nc2ccccc2)CC1 (stereo not given)	-4%

Exported field by field: two of the compounds above
Cc1ccc(-n2nnc3c(=O)n(CC(=O)N4CCC(C)CC4)cnc32)cc1
  HPGD inh: -11%

COc1ccc(CCN(C(=O)c2cccc(F)c2)C2CC(=O)N(c3ccc(OC)cc3)C2=O)cc1 (stereo not given)
  HPGD inh: 3%

Further compounds follow.
Molecule	HPGD inh
O=C(Nc1sc2c(c1C(=O)O)CCC2)c1ccco1	22µM*
COc1cccc(-c2nnc3sc(-c4cccs4)nn23)c1	-24%
CCCCOc1ccc(CSc2nncn2N)cc1	-7%
CC(C)(C)c1ccc(OC(=O)CN2C(=O)C3C4CCC(C4)C3C2=O)cc1 (stereo not given)	-14%
Cc1[nH]c2ccccc2c1CCC(N)=O	-4%
Cc1ccc(N2CC(C(=O)N/N=C/c3sccc3C)CC2=O)cc1 (stereo not given)	-6%
COc1ccccc1N1CCN(Cc2ccco2)CC1	-5%
CCNC(=O)N1CCNC(=O)C1CC(=O)Nc1ccc(C(=O)OCC)cc1 (stereo not given)	13%
S=c1[nH]nc(-c2ccncc2)n1CC1CCCO1 (stereo not given)	-11%
CCOc1nnc(C)c2c(C)n(-c3ccc(Cl)cc3)nc12	-5%
CCOC(=O)/C=C/S(=O)(=O)c1ccc(NC(C)=O)cc1	-5%
O=C(c1ccccc1[N+](=O)[O-])N1CCc2ccccc2C1	13µM*
Cc1cccc(NC(=O)c2ccc(-n3ccnc3)nc2)c1	-10%
Cc1cc(Br)ccc1NC(=O)CCSc1ccccc1	-4%
Cc1cc(=O)oc(C)c1C(=O)OCC(=O)c1ccc(Cl)cc1	-7%
Cc1cccc(N2CCN(C(=O)CCc3nc4ccccc4[nH]3)CC2C)c1 (stereo not given)	-5%
Cc1ccco1	-8%
COc1ccc(N2C(=O)C3CC(C)=C(C)CC3C2=O)c(OC)c1 (stereo not given)	-3%
CN1C(=O)CS(=O)c2ccc(C(=O)NCCC3=CCCCC3)cc21 (stereo not given)	-5%
CCn1cnc2c1c(=O)n(CC(=O)Nc1cc(C)on1)c(=O)n2Cc1ccccc1	-18%
Cc1ccc2c(c1)nc(NCCO)n2C	-18%
COc1cc2c(cc1OC)C(C(=O)N1CCN(c3ccccn3)CC1)C(c1cccs1)N(C)C2=O (stereo not given)	-14%
COc1ccccc1-c1nnc(SCC(=O)NCc2c(C)c(Cl)cc(C(C)C)c2O)o1	-13%
N/C(Cc1ccc([N+](=O)[O-])cc1)=N\OC(=O)c1ccccc1Br	-14%

Further records.
canonical_smiles	HPGD inh
Cc1[nH]ncc1N=Cc1ccc([N+](=O)[O-])cc1	-13%
CNC(=S)N=Nc1c(O)[nH]c2ccccc12	-26%
CCC(C)NC(=O)Nc1ccc2c(c1)N(C)C(=O)c1ccccc1S2 (stereo not given)	-5%
CCOC(=O)c1nn(-c2ccc(Cl)cc2)c2nnc(Cc3ccc(C)cc3)c(=O)n12	-3%
Cc1onc(-c2c(Cl)cccc2Cl)c1C(=O)N[C@H]1C(=O)N2[C@H]1SC(C)(C)[C@H]2C(=O)O	10µM*
CCOC(=O)CCCCC(=O)c1[nH]c(=O)[nH]c1CSc1nc(C)cc(C)n1	-6%
CN(C)Cc1c(O)ccc2c3c(c(=O)oc12)CCCCC3	?
CCCn1c(CN2CCCCC2C)nc2c1c(=O)n(C)c(=O)n2C (stereo not given)	-2%
O=C(Nc1ccccc1Cl)c1ccn[nH]1	-23%
CC(C)CC(NC(=O)CN)C(=O)NC(Cc1ccccc1)C(=O)O (stereo not given)	-8%

Random excerpt: 3 records from the list, in no set order.
canonical_smiles	HPGD inh
CC(C)CC(NC(=O)CN)C(=O)NC(Cc1ccccc1)C(=O)O (stereo not given)	-8%
CCOC(=O)CCCCC(=O)c1[nH]c(=O)[nH]c1CSc1nc(C)cc(C)n1	-6%
O=C(Nc1ccccc1Cl)c1ccn[nH]1	-23%

Remaining list, next part:
canonical_smiles	HPGD inh
CCCCc1nc(NCCNC(=O)c2ccccc2)c(C#N)c2c1CSC(C)(C)C2	?
Nc1nnc(N2CCCCC2)s1	-1%
CCC(CC)C(=O)N1CCN(Cc2ccc3c(c2)OCO3)CC1	-4%
CCOc1ccccc1NC(=O)NC1(C(=O)N2CCOCC2)CCCCC1	-14%
O=C(COc1cccc(F)c1)N[C@@H](Cc1ccccc1)c1nc2ccccc2[nH]1	-5%
CCOc1ccc(C(=O)NC(=S)Nc2ccc(N3CCC(C)CC3)cc2)cc1[N+](=O)[O-]	-30%
Cc1ccc(SCC(=O)NC(C)(C)C)cc1	-27%
Cc1nn(Cc2ccccc2)c(C)c1N	-7%
COCCOC(=O)C1=C(C)NC(=O)NC1c1c(Cl)nc2c(C)cccn2c1=O (stereo not given)	-16%
C(=N\N1CCN(C2c3ccccc3-c3ccccc32)CC1)/c1cccs1	-8%

Single entries from the results shown.
Value of C(=N\N1CCN(C2c3ccccc3-c3ccccc32)CC1)/c1cccs1 in HPGD inh: -8%
Value of Cc1ccc(SCC(=O)NC(C)(C)C)cc1 in HPGD inh: -27%
Value of CCOc1ccccc1NC(=O)NC1(C(=O)N2CCOCC2)CCCCC1 in HPGD inh: -14%
Value of Cc1nn(Cc2ccccc2)c(C)c1N in HPGD inh: -7%

More entries follow:
canonical_smiles	HPGD inh
CC(=O)Nc1ccc(C(=O)NNC(=O)c2cccs2)cc1	-6%
CC(C)c1nc2ccc(NC(=O)C34CC5CC(CC(C5)C3)C4)cc2[nH]1	3%
COc1ccc(NC(=O)CSc2nnc(-c3cccs3)n2-c2ccccc2)cc1	-7%
CC1(C)CC(=O)c2cc3c(N)c(C(=O)NCc4ccccc4)sc3nc2C1	1%
COc1ccc2c(c1)[nH]c1c(=O)n(N)cnc12	2%
CN(C)/C=C1\N=C(c2cccs2)OC1=O	-17%
CN(C)Cc1cc(O)c(O)c(CN(C)C)c1	-2%
Cc1cc(C)nc(/N=C(/NC(=O)Nc2ccc(Cl)c(Cl)c2)Nc2cccc(Cl)c2)n1	-4%
CCOC(=O)C1=C(CNCCc2ccc(Cl)cc2)NC(=O)NC1c1ccc2c(c1)OCO2 (stereo not given)	-6%
CCOC(=O)C1CCN(c2ncnc3c2oc2ccc(Cl)cc23)CC1	-25%
Cc1cccc2cc3c(N)c(C(=O)N4CCCc5ccccc54)sc3nc12	?
O=C(COc1ccc([N+](=O)[O-])cc1Cl)NCCc1ccccc1	-5%
N#Cc1cccc(NC(=O)CC2CCCCC2)c1	-11%
Cc1ccc(Cl)cc1N1CCN(C(=O)C2CCN(S(=O)(=O)c3cccnc3)CC2)CC1	1%
CN1C(=O)CC(C(=O)O)SC1=Nc1cc(Cl)c(O)c(Cl)c1 (stereo not given)	-17%
Cc1ccc(NC(=O)CS(=O)CC(=O)N(c2ccc(C)cc2)C(C)C(=O)NC2CCCCC2)cc1 (stereo not given)	-6%
Cc1cc(/C=N\NC(=O)COc2cccc3cccnc23)c(C)n1-c1ccc(Br)cc1	-3%
O=c1cc(-c2cccc(Br)c2)nc(-c2ccccc2F)o1	-12%
C=C(C)Cn1c(=S)[nH]c2ccccc2c1=O	-5%
CC(=O)c1ccc(OCCCC(=O)Nc2ccc(C)c(S(=O)(=O)N(C)C)c2)cc1	-8%
C=C[C@@]1(C)CC(=O)[C@@]2(O)[C@@]3(C)[C@@H](O)CCC(C)(C)[C@@H]3[C@H](OC(=O)CCN(C)C)[C@H](OC(C)=O)[C@@]2(C)O1	-12%
CC1(C)Cc2c(C#N)c(OCC(=O)c3ccc(Cl)cc3)nc(-c3ccco3)c2CO1	?
CONC(=O)c1cc(OCC(F)(F)F)ccc1OCC(F)(F)F	-14%
Cc1ccc(S(=O)(=O)N2CCC(C(=O)Nc3ccc4c(c3)OCO4)CC2)cc1	-18%
Cc1cc(C)n(-c2nc(-n3nc(C)cc3C)c3c4c(sc3n2)COC(C)(C)C4)n1	?
O=c1ccc2ccc(OCc3nnc(-c4ccccc4Br)o3)cc2o1	?
CC(C)CNC(=O)NC(=O)COC(=O)c1cccc(NS(=O)(=O)c2ccc(F)c(F)c2)c1	-4%
COc1ccc(/C=C/C(=O)c2ccc(Cl)s2)cc1O	?
CC1CCN(C(=O)c2cccc(S(=O)(=O)N3CCCCC3)c2)CC1	-8%
Cc1nn(C)c(C)c1N1C(=O)c2cccc3c(Br)ccc(c23)C1=O	-20%
CC1(C)CC(O)C(CCC(O)c2ccccc2)C(C)(C)N1 (stereo not given)	-8%
CCOc1ccc(NC(=O)CNC(=O)c2cn(-c3ccccc3OC)c(=O)c3ccccc23)cc1	-15%
CC(C)C(c1nnnn1CCc1ccccc1)N1CCN(C(=O)c2ccco2)CC1 (stereo not given)	-5%
CCCOc1ccc(C(NC(=O)CC(C)C)NC(=O)CC(C)C)cc1OC	-5%
O=C(C1CC1)N1CCc2cc(Br)cc(S(=O)(=O)NCCN3CCOCC3)c21	-18%
CC(=O)/C=C1/SC(CC(=O)O)C(=O)N1c1ccccc1 (stereo not given)	-13%
O=C(N/N=C/C=C/c1ccccc1[N+](=O)[O-])c1cccs1	-10%
Cc1nnsc1C(=O)NC(C)C12CC3CC(CC(C3)C1)C2 (stereo not given)	-7%
CCCN(CCC)CCNc1c(NC2CCN(C(=O)OCC)CC2)c(=O)c1=O	-6%
COc1ccc(/C=C(/C(=O)Nc2ccccc2C(=O)N2CCCC2)c2ccccc2)cc1	-18%
O=C(Nc1ccccc1)c1ccccc1NC(=O)C1CCCCC1	-26%
CCOC(=O)N1CCN(C(=O)/C(=C/c2cccc3ccccc23)NC(=O)c2ccc(OC)c(OC)c2)CC1	-12%
c1cncc(-c2nnc3n2CCC3)c1	-5%
Cc1ccc(NC(=O)c2ccncc2)cc1[N+](=O)[O-]	-18%
O=C1C(=Cc2cccs2)C(=O)c2ccccc21	?
COc1ccc(-c2noc(-c3ccccc3C(=O)NCc3ccco3)n2)cc1	-15%
CCC(C)(C)NC(=O)C(OC(=O)c1cc2sccc2n1C)c1ccc(OC)cc1 (stereo not given)	-10%
C=C(C)CSc1nnc2n(Cc3ccccc3)c(=O)c3c4c(sc3n12)CCC4	-11%
COc1ccc(OC)c(NC2=NC3(CCCC3)N=C(N)N2)c1	-10%
CC1(C)N=C(SCC(=O)Nc2ccc(Cl)cc2)C(c2ccccc2)=N1	-6%
Nc1[nH]n2c(=O)cc(-c3ccccc3)nc2c1N=Nc1ccccc1	-12%

From PubChem BioAssay
